High-throughput results (PubChem)
rRNA inh HTS – inhibitors of bacterial rRNA selective over humanized ribosomes; E. coli WT GFP vs humanized-ribosome RFP mutants, fluorescence, 24 h; active compounds read low; DMSO median 0, no signal -100; GFP signal change (wild-type ribosome), % (no concentration beside the values); hit rate 1.6% among 350,000; AID 720706;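 active = significant combined selectivity score with lowered wild-type GFP, culture density cut under 30%, mutant RFP and density less affected; inactive = any of these conditions unmet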; note: one replicate is shown; some compounds called inactive have numbers as strong as hits
FGF22 binding – FGF22 (human) thermal shift binding; Q9HCT0; recombinant FGF22 thermal shift, SYPRO orange fluorescence; percent of sucrose octasulfate shift, DMSO zero; calls only at 9.99 µM; hit rate 1.5% among 340,000; AID 651658;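 active = melting point raised past a set limit in the mean and every replicate; three in four hits are not shown here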
Target sequence (Q9HCT0 whole entry, looked up): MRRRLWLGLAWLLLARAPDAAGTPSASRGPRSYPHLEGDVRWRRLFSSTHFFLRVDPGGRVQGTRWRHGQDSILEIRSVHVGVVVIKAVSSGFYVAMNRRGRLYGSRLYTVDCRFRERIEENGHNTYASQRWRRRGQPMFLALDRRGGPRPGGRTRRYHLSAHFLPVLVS
ALR H2O2 inh – blocks human ALR sulfhydryl oxidase activity. P55789. purified ALR, DTT oxidation, H2O2 HRP-luminol luminescence. inhibition, % (concentration not given with the values). hit rate 3.8% among 290,000. AID 485317;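 active = mean and each replicate at 75% or more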;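 note: stock transfer was 7.5 nL into about 7.5 µL; 0% = neutral wells and 100% = wells with inactivated enzyme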
Target sequence (P55789 whole entry, looked up): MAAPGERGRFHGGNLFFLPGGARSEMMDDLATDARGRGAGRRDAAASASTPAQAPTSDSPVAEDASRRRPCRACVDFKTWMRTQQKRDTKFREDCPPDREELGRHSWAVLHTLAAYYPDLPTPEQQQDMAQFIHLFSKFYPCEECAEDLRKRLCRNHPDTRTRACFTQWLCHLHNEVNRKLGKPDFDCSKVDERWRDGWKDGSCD
Ecoli growth – inhibitors of Escherichia coli growth; OD600, 23 h; active compounds read low; OD600 absorbance (concentration not given with the values); hit rate 0.21% among 330,000;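 active = OD600 absorbance below the run mean of sample wells minus 3.6 SD, in any replicate, cut at about 0.56 in these data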;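 note: stock transfer was 300 nL into about 60 µL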
Vif TR-FRET – inhibitors of Vif binding to APOBEC3G peptide, primary screen, biochemical, TR-FRET, GST-Vif 1-94, biotin-A3G peptide, dose response retest (AID 1117319). TR-FRET GST-Vif / biotin-A3G peptide binding; higher % means a stronger effect; test concentration not given here; strong numbers were not always called active. one-dose inhibition, %; IC50 in µM for titrated hits. hit rate 0.57% among 260,000;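 active = above the screen mean plus three standard deviations and confirmed in dose response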;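 note: Vif residues 1-94 fused to GST binding biotinylated APOBEC3G peptide 110-148; 0% = full assay without inhibitor and 100% = GST in place of GST-Vif; retest series ran down from 100 µM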
HNF4A DNA FP – change in binding of human HNF4 alpha to DNA; P41235; HNF4a-FITC DNA binding, fluorescence polarization, 1 h; activity change, % at 10 µM; hit rate 0.3% among 360,000; AID 1224865; in the data active = activity change above about 30%, passing the limit was not always enough;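 note: controls were the assay level and a saturating level of protein; the project sought stronger binding though the title names inhibitors; some compounds called inactive have numbers as strong as hits; positive values seem to mean higher polarization but the record does not say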
Target sequence (P41235 whole entry, looked up): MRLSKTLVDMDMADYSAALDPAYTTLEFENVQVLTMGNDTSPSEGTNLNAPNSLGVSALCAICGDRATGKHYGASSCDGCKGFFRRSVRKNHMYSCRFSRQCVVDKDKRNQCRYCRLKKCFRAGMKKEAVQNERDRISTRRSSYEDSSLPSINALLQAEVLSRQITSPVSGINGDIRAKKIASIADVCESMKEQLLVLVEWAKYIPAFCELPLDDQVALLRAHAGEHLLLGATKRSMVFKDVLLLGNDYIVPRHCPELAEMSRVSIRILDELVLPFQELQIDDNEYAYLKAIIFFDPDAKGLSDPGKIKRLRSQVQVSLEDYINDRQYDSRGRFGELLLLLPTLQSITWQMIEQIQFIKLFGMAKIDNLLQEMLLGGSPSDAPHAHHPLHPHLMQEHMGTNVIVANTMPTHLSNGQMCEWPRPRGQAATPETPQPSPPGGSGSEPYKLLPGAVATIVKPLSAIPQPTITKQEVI
AF4-AF9 inh – blocks AF4 peptide binding to human AF9; hit rate 0.47% among 350,000; AlphaScreen, biotin-AF4 peptide binding to FLAG-AF9; inhibition, % at 10 µM; P42568;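 active = every replicate reaching a set inhibition limit, whatever the replicate mean, cut at about 25% in these data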;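 note: 0% = plate neutral control median and 100% = total signal loss; the record names both 10 and 1 µM as test concentration; the first replicate is given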
rRNA inh HTS OD600 – recorded beside rRNA inh HTS, whose call it bears; OD600 change, %; measured here: OD600 growth;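 optical density of the mix in the first replicate; 0 = DMSO median and -100 = no signal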
rRNA inh HTS RFP – further read-out of rRNA inh HTS, marked with its call; RFP signal change, %; measured here: RFP humanized mutant strains;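 first replicate; 0 = DMSO median and -100 = no signal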
Numbers without * were called inactive; i = inactive; / = no result given. These rows are one share of the data. The share of hits here may be higher or lower than overall.

A first look, three compounds:
SMILES	rRNA inh HTS	rRNA inh HTS OD600	rRNA inh HTS RFP	FGF22 binding	ALR H2O2 inh	Ecoli growth	Vif TR-FRET	HNF4A DNA FP	AF4-AF9 inh
CC[C@@H](NC(=O)[C@@H](Cc1ccccc1)NC(=O)CC[C@H]1O[C@@H](n2ccc(=O)[nH]c2=O)[C@H](O)[C@@H]1O)c1ccccc1	-8.9*	3.6*	1.6*	i	/	/	/	-0.7	-1.2
COc1ccc(Cc2nnc(NC(=O)c3c(-c4ccccc4)noc3C)s2)cc1OC	-17	-29	-14	i	-20	0.67	0%	1.0	3.9
O=C(O)/C=C\c1cccc(-n2cnnn2)c1	/	/	/	/	-5	0.7	-5%	3.2	/

This part in full (from the top)
SMILES	rRNA inh HTS	rRNA inh HTS OD600	rRNA inh HTS RFP	FGF22 binding	ALR H2O2 inh	Ecoli growth	Vif TR-FRET	HNF4A DNA FP	AF4-AF9 inh
CC[C@@H](NC(=O)[C@@H](Cc1ccccc1)NC(=O)CC[C@H]1O[C@@H](n2ccc(=O)[nH]c2=O)[C@H](O)[C@@H]1O)c1ccccc1	-8.9*	3.6*	1.6*	i	/	/	/	-0.7	-1.2
COc1ccc(Cc2nnc(NC(=O)c3c(-c4ccccc4)noc3C)s2)cc1OC	-17	-29	-14	i	-20	0.67	0%	1.0	3.9
O=C(O)/C=C\c1cccc(-n2cnnn2)c1	/	/	/	/	-5	0.7	-5%	3.2	/
FC(F)(F)c1nnc2n1N=C(c1cccs1)CS2	-7	-2	-2.0	i	-13	0.65	-8%	1.2	-0.8
Cc1ccccc1OC(=O)c1cccc(S(=O)(=O)N2CCN(C)CC2)c1	/	/	/	i	/	/	-2%	-4.3	2.0
COc1ccc(C2CC(=O)Oc3cc(C)cc(C)c32)cc1 (stereo not drawn)	-24*	-12*	4.5*	i	/	/	1%	0.7	2.6
CN(C)C(=O)C[C@H]1CC[C@@H](NS(=O)(=O)c2ccccc2)[C@H](CO)O1	2	3	-0.9	i	/	/	/	/	-13
Cc1cc(C)nc(NC(=O)c2ccccc2O)n1	-2	-14	-0.5	i	-12	0.64	3%	5.5	-0.9
Cc1cc(C)cc(NC(=O)N2CCCN(Cc3c(F)cccc3Cl)CC2)c1	-22	-21	0.0	i	-3	0.62	2%	5.0	/
Cc1ccc(S(=O)(=O)NCCc2cc3ccc(C)cc3[nH]c2=O)cc1	-11	-7	2.2	i	3	0.7	/	-2.0	-1.8
COc1ccc(C)cc1NC(=O)C(NCC(O)c1ccccc1)c1ccccc1 (stereo not drawn)	-12	-13	5.0	i	-12	0.64	-1%	6.5	-0.2
CO[C@H](CN(C)C(=O)C1CCOCC1)[C@@H](C)CN(C(=O)Nc1ccc(F)cc1)[C@H](C)CO	-1	-10	1.0	i	/	/	/	/	0.2
CCOc1ccc(OCC)c(S(=O)(=O)NNC(=O)c2c(C)nc3ccccn23)c1	3	7	-1.1	i	3	0.67	2%	0.3	-6.2
COc1cc(/C=N/N(C)c2ccccc2)ccc1O	/	/	/	/	99*	/	7%	-1.7	/
CCCOc1ccc(C(=O)Nc2ccc(S(=O)(=O)N3C[C@@H]4C[C@@H](C3)c3cccc(=O)n3C4)cc2)cc1	1	3	2.4	i	1	0.59	/	1.9	/
CC(=O)c1ccc(S(=O)(=O)N(C)CCCC(=O)N2CCN(c3ncccn3)CC2)cc1	1	7	-1.5	i	/	0.66	-7%	0.5	-9.9
Brc1ccc(CN2CCN(c3ccccc3)CC2)o1	2	8	2.1	i	97*	0.61	-7%	-1.3	2.5
CC(C)NC(=O)N(Cc1ccc(Cl)cc1)Cc1cccs1	-24*	-18*	-8.1*	i	2	0.66	-8%	3.2	-7.3
CN1CCC(N(C)C(=O)c2ccc(Cl)c(S(=O)(=O)N3CCCCC3)c2)CC1	7	12	-1.7	i	/	0.71	/	-0.1	-2.7
N#Cc1ccccc1Sc1ccccc1C(=O)N1CCOCC1	/	/	/	/	-24	0.73	-4%	-1.2	/
O=C(Nc1ccccc1Oc1ccccc1)C1=COCCO1	-5	-10	-1.3	i	2	0.7	/	-1.3	-11
S=C(Nc1ccc2[nH]ccc2c1)NC1CCCCC1	/	/	/	i	33	0.6	4%	-5.9	12
C[C@@H]1CN([C@@H](C)CO)C(=O)c2cccc(NC(=O)C3CC3)c2O[C@@H]1CN(C)Cc1ccc(C(F)(F)F)cc1	0	4	-2.3	i	/	/	/	/	-2.1
CCOc1ccccc1N1CCN(CC(=O)NC(C)c2ccccc2)CC1 (stereo not drawn)	-1	-5	-0.6	i	66	0.72	/	1.5	8.2
CC(=O)Nc1ccc(S(=O)(=O)N(Cc2cc3ccc(C)cc3[nH]c2=O)CC2CCCO2)cc1 (stereo not drawn)	0	6	-1.8	i	-1	0.71	-7%	-2.3	0.1
C=CCOC(=O)C1=C[C@@H](c2ccc(C(F)(F)F)cc2)C[C@@H](OCc2ccc(CO)cc2)O1	9	8	-1.5	i	15	/	/	0.6	-1.0
CCN(CC(=O)N1CCCC1)S(=O)(=O)c1ccc(F)cc1	6	8	0.3	i	3	0.7	/	-3.2	-1.4
CN(C)CC(=O)N[C@H]1CC[C@H](CCn2cc(C3CCCC3)nn2)O[C@H]1CO	4	5	-2.3	i	/	/	/	/	-2.2
CC(C)CC1C(=O)N(Cc2cn(Cc3ccco3)nn2)CCS(=O)(=O)N1Cc1ccc(-c2ccncc2)cc1 (stereo not drawn)	-4	-10	0.8	i	/	/	/	3.6	2.9
CN(CCc1ccccc1)C(=O)c1ccc(NC(=O)Cc2cccc(NC(=O)C3CCN(C(=O)C4CCCC4)CC3)c2)cc1	-4	-8	-0.9	i	/	0.66	/	0.9	3.2
C[C@@H]1CN([C@@H](C)CO)C(=O)c2cc(NS(C)(=O)=O)ccc2O[C@@H](C)CCCCO[C@@H]1CN(C)C(=O)Nc1ccccc1	2	4	-0.4	i	/	/	/	/	-4.7
C[C@@H]1CN([C@@H](C)CO)C(=O)c2cccc(NC(=O)c3cnccn3)c2O[C@@H]1CN(C)Cc1ccc(C(F)(F)F)cc1	-4	-3	-2.0	i	/	/	/	/	-0.5
C[C@H](NC(=O)c1nc[nH]c1C(=O)NC(c1ccccc1)c1ccccc1)C(=O)OC(C)(C)C	0	5	-2.1	i	/	/	/	-0.6	5.7
CCn1c(CC(=O)Nc2ccccc2F)nnc1SCC(=O)NC1CCCC1	6	14	-2.0	i	-16	0.69	/	2.6	1.6
C[C@@H]1CN([C@H](C)CO)C(=O)c2cc(NC(=O)CCCN(C)C)ccc2O[C@H]1CN(C)Cc1ccc(Oc2ccccc2)cc1	0	-1	1.3	i	/	/	/	/	13
Fc1ccccc1N1CCN(c2ncnc3nc[nH]c23)CC1	17	10	4.3	i	1	0.7	/	3.2	-0.3
O=C(NC1CCCCC1)C1(S(=O)(=O)c2ccc(Cl)cc2)CC1	0	3	0.0	i	/	0.68	/	5.4	0.6
O=C(OCCN1CCOCC1)c1cccc(F)c1	16	11	-0.4	i	-2	0.69	/	0.4	-2.4
COc1cc2c(c(OC)c1OC)-c1ccc(SC)c(=O)cc1C(NC=O)CC2 (stereo not drawn)	11	8	-1.3	/	/	/	-8%	-4.7	-8.4
Cc1oc2c(c1C(=O)c1ccccc1)C(=O)C(=O)c1ccccc1-2	/	/	/	/	20	0.76	23%	0.3	/
O=C(O)c1ccc2c(=O)n3c(nc2c1)/C(=C/c1ccc(Cl)c(Cl)c1)CC3	-4	-11	-6.4	i	/	0.67	-6%	-4.8	0.1
CC(=O)Nc1ccc(S(=O)(=O)N2CCN(Cc3ccncc3)CC2)cc1	/	/	/	/	/	0.69	-2%	1.0	/
CC1CCCCN1Cc1cnc(Cl)s1 (stereo not drawn)	/	/	/	/	-3	0.81	4%	0.2	/
C[C@H]1CN([C@@H](C)CO)C(=O)c2cc(C#Cc3ccncc3)cnc2O[C@@H]1CN(C)C(=O)c1ccccc1F	-3	-3	1.6	i	/	/	/	/	-1.3
COc1cccc(/C=N/NC(=O)c2ccc(=O)n(C)c2)c1OC	5	25	4.2	i	-4	/	-1%	0.8	0.8
O=C(C1CC(=O)N(C2CCCC2)C1)N1CCN(c2ccccc2F)CC1 (stereo not drawn)	-4	-2	-1.1	i	-6	0.73	-2%	3.0	-4.1
COc1ccc(Cl)cc1NC(=O)C1COc2ccccc2O1 (stereo not drawn)	-32	-62	-4.3	i	-3	0.7	6%	-0.7	-2.1
COc1ccc(NC(=O)Nc2ccc3c(c2)C(=O)N([C@@H](C)CO)C[C@@H](C)[C@@H](CN(C)Cc2ccccc2)OCCCC[C@@H](C)O3)cc1	1	-15	22	i	/	/	/	/	12
O=C(c1cc2ccccc2o1)N1CCN(c2cccc(C(F)(F)F)c2)CC1	8	5	3.0	i	/	0.72	-12%	0.7	-1.4
COc1cc(C(=O)Nc2ccc(O)cc2C(=O)O)ccc1OC(C)=O	/	/	/	/	87*	0.71	11%	-1.8	/
CN(C)C(=O)c1cccc(-c2cccc(-c3nc(C(=O)N4CCOCC4)cc4c3[C@H](CCO)N([S@@](=O)C(C)(C)C)C4)c2)c1	-2	2	8.6	i	/	/	/	/	-3.3
O=S(=O)(c1ccc(Br)cc1F)N1CCCCC1CCO (stereo not drawn)	-3	-2	1.8	i	/	/	/	4.7	-2.5
CCc1nc2ccc(C(=O)NCCCn3ccnc3)cn2c1N(CC)CCOC	10	6	0.2	i	/	/	/	-1.0	-8.5
CCc1nc2ccccc2c(C(=O)Nc2cc(C)ccc2C)c1C	-13	-7	3.8	/	-3	0.62	/	1.9	-3.3
COc1ccc(NC(=O)CN2CCN(S(=O)(=O)N(C)C)CC2)cc1	1	8	-1.9	i	3	0.66	/	-1.0	-1.4
CCOC(=O)C(C)CC(C)C(=O)N1CCOCCOCCN(C(=O)C(C)CC(C)C(=O)OCC)CCOCC1 (stereo not drawn)	/	/	/	/	2	0.73	14%	0.3	/
CN1CCN(Cc2cccc3ncccc23)CC1CCO (stereo not drawn)	18	3	2.0	i	-3	0.67	/	-5.5	6.7
Cc1ccc(S(=O)(=O)/N=C(/Nc2ccc([N+](=O)[O-])cc2[N+](=O)[O-])c2ccccc2)cc1	/	/	/	i	-21	/	-10%	0.7	4.0
CCn1c(CNC(=O)COc2ccc(C(C)C)cc2)nnc1SCC(=O)Nc1ccccc1F	-30	-29	1.8	/	-1	0.63	9%	0.5	/
CCCCN(CC)CCCNC(=S)Nc1ccc2nc(N3CCN(C)CC3)cc(C)c2c1	8	7	-1.3	i	/	0.69	1%	1.6	26*
The listing continues:
SMILES	rRNA inh HTS	rRNA inh HTS OD600	rRNA inh HTS RFP	FGF22 binding	ALR H2O2 inh	Ecoli growth	Vif TR-FRET	HNF4A DNA FP	AF4-AF9 inh
C=C(C)CSC1=C(C#N)C(c2ccsc2)CC(=O)N1 (stereo not drawn)	/	/	/	/	-7	0.74	-4%	9.7	/
Cc1ccc2[nH]c(=O)c3cc(C(=O)NCCN4CCN(C)CC4)sc3c2c1	2	13	4.4	i	-6	0.78	-2%	10	2.6
CC(NC(=O)/C=C/c1ccccc1)c1ccccc1 (stereo not drawn)	-6	-5	-3.2	i	/	0.67	/	-0.9	1.5
O=C(Nc1cc(C(F)(F)F)ccc1-n1cncn1)c1ccc(-c2ccccc2)cc1	/	/	/	/	/	0.69	25%	5.2	/
CCOC(=O)C1CCN(C(=O)c2cnn3c(C)cc(C)nc23)CC1	/	/	/	/	-3	0.77	4%	-0.4	/
Cc1cccc(S(=O)(=O)N2C[C@@H]3[C@H](c4ccccc42)[C@@H](CO)N3C(=O)CC2CC2)c1	-6	-7	-2.1	i	/	/	/	/	0.4
COc1ccc(NC(=S)N2CCN(S(=O)(=O)c3ccc(C)cc3)CC2)cc1	1	-2	3.3	i	-15	0.72	-4%	-2.9	2.8
